# Screening results (PubChem BioAssay)
# VDR inh = Inhibitors of the vitamin D receptor (VDR): qHTS; Vitamin D3 receptor (Homo sapiens), P11473; VDR-SRC2-3 peptide fluorescence polarization, 2 h; Potency, µM, for the others: max response, negative = inhibition, most hits filed as inhibitors; 400,000 tested, 0.93% active; AID 504847, 2011; active = well fitted inhibition curve with a large enough effect; inconclusive = small, poorly fitted or top-dose-only effect, or another doubt; inactive = no such curve, though single readings can be large or run the other way; note: series mostly up to about 120 µM
# Target sequence (P11473 whole entry, looked up): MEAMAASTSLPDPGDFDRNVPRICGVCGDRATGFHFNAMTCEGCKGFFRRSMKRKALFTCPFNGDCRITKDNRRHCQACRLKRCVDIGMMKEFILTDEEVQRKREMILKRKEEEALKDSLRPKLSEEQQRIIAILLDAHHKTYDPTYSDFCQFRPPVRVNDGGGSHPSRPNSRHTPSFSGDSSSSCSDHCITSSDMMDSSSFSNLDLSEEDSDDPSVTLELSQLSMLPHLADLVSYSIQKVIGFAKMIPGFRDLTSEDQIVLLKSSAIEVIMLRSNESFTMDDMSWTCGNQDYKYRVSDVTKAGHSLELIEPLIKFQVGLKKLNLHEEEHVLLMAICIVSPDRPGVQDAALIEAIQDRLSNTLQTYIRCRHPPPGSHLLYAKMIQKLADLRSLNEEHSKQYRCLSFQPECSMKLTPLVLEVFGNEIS
#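 Reagent solutions, kept cold and dark, are dispensed first; compounds are then pinned in at 23 nl, plates briefly spun, and incubated 2 h at ambient temperature. Inhibition of VDR–SRC2-3 peptide binding is read by fluorescence polarization.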
# * marks the source's active call; other numbers are inactive results; ? = inconclusive; & = joins results of further samples. % is set by controls: 0 for no effect and ±100 for the full control effect; potency is the fitted concentration of half-maximal effect. These rows are one share of the data, so the mix of outcomes need not match the whole.
SMILES | VDR inh
COc1cc(/C=C/C(=O)OCC(=O)NC(C)c2ccccc2)cc(OC)c1OC (configuration not stated) | -8.4%
CC(=O)OC1C[C@@]2(C)C(c3ccoc3)OC(=O)C3O[C@@]32[C@]2(C)C(OC(C)=O)CC3C(C)(C)C(OC(C)=O)CC(OC(C)=O)[C@@]3(C)C12 (some centres not stated) | -0.3%
Cc1cccc(C(=O)NCC(=O)OCCOc2ccccc2Cl)c1 | 11.5%
CCC(C)n1c(-c2cccc(S(=O)(=O)N(CC)CC)c2)n[nH]c1=S (configuration not stated) | -5.4%
O=C(N/N=C/c1ccc([N+](=O)[O-])o1)c1ccccc1-n1cccc1 | -10.6%
COc1ncc2nc(CCc3ccccc3)c(=O)n(CCC#N)c2n1 | -2.6%
COc1cccc(C(=O)NCc2ccc3c(c2)CCN3C(=O)c2ccncc2)c1 | 14.8%
CCOc1ccc(S(=O)(=O)Nc2cccc(-c3ccc(N4CCCCCC4)nn3)c2)cc1 | 2.6%
CCNC(=S)N/N=C/c1ccc(C(=O)O)cc1 | -19.9%
Cc1ncoc1C(=O)Nc1nccs1 | 8.4%
CCN(CC)CCN(C(=O)c1ccc2c(c1)OCCO2)c1nc2ccc(C)cc2s1 | 0.8%
CCOc1ccccc1NC(=S)C(=C([O-])c1ccc2c(c1)OCCO2)[n+]1ccc(CC)cc1 | 8.4%
COc1cc(-c2[nH]ncc2CN2CCc3sccc3C2)cc(OC)c1OC | 15.3%
COCC1CCN(Cc2nc(-c3ccc(OC)cc3)no2)CC1 | 9.5%
COc1cccc(CNC(=O)Cn2ncc3c4ccccc4n(C)c3c2=O)c1 | 10.6%

# 3 structures from above, ordered by heavy-atom count, high to low:
SMILES | VDR inh
CC(=O)OC1C[C@@]2(C)C(c3ccoc3)OC(=O)C3O[C@@]32[C@]2(C)C(OC(C)=O)CC3C(C)(C)C(OC(C)=O)CC(OC(C)=O)[C@@]3(C)C12 (some centres not stated) | -0.3%
COc1cc(/C=C/C(=O)OCC(=O)NC(C)c2ccccc2)cc(OC)c1OC (configuration not stated) | -8.4%
CCC(C)n1c(-c2cccc(S(=O)(=O)N(CC)CC)c2)n[nH]c1=S (configuration not stated) | -5.4%

# (cont.)
SMILES | VDR inh
CC(=O)Oc1ccc(-c2csnn2)cc1 | -9.1%
CCCCn1c(Nc2ccccc2)nc2ccccc21 | 20.9%
COc1ccc(OCc2ccc(-c3nc(C#N)c(N4CCN(c5cccc(Cl)c5)CC4)o3)o2)cc1 | 11.2%
COC(=O)c1[nH]c2cc(OC)c(OC)cc2c1/C=N/Nc1ccccc1 | 6.0%
CC1CC(=O)Nc2ccccc2N1C(=O)COc1ccc2ccccc2c1 (configuration not stated) | 5.6%
O=C(NCc1ccc2c(c1)OCO2)C(=O)NCC(c1ccco1)N1CCN(c2ccccc2)CC1 (configuration not stated) | -11.1%
C=CCSc1nc(N)c(NC(=O)c2ccco2)c(=O)[nH]1 | -0.3%
CCOC(=O)C1CCN(C(=O)C2CCN(C3=NS(=O)(=O)C(c4ccc(C)cc4)=C3CC)CC2)CC1 | 8.1%
CC(=O)N1CCC2(CC1)CN(C(=O)Nc1cccc(C#N)c1)C2 | 3.3%
Cc1cc(CSc2ccccc2)ccc1NC(=O)COc1ccccc1C | 3.4%
CCCNC(=O)NC(=O)CSc1nc2ccccc2n1CC(C)C | 0.2%
O=C(NCc1ccccc1)c1ccc(NC(=O)N2CC3CCCN3c3ccccc32)cc1 (configuration not stated) | 16.1%
COc1ccc2sc(-c3ccccc3OC)c(-c3ccc(OCCN4CCOCC4)cc3)c2c1 | -5.4%
CCc1ccc(OCC(=O)Nc2cccc3nsnc23)cc1 | -2.7%
Cc1ccc(C)c(S(=O)(=O)N(C)c2ccc(OC(=O)C3CCN(C(=O)c4ccc(F)cc4)CC3)cc2)c1 | -12.7%
CC1(C)NC(C)(C)C(O)(C(N)=O)C1=O (configuration not stated) | -1.9%
Cc1cccc(N2CCN(C(c3ccccc3)c3nnc(-c4ccccc4Cl)o3)CC2)c1C (configuration not stated) | -11.6%
Cc1ccc2nc(N3CCN(c4cccc(C)c4C)CC3)c3nnnn3c2c1 | -3.4%&0.1%
Cc1ccccc1NS(=O)(=O)c1nnc(NC(=O)C(C)C)s1 | 3.4%
COC(=O)C1=C(C)N(c2ccc(C)cc2)/C(=C/c2ccc(O)cc2)C1=O | -7.2%
COc1ccc(OC)c(/C=N/NC(=O)c2cc3c(OC)cc(OC)cc3[nH]2)c1 | 3.3%
O=C(NN=C1CCCC1)c1ccccc1OCCOc1ccccc1 | -7.6%
CC1CCN(c2oc(-c3cccs3)nc2S(=O)(=O)c2ccccc2)CC1 | 3.3%
CCCC[C@H]1CCCO[C@@](C(=O)NCc2ccc(C)o2)(C(F)(F)F)C1 | ?
O=[N+]([O-])c1ccc(S(=O)(=O)N2CCN=C2SCc2ccc(F)cc2)cc1 | -17.7%
Cc1ccc(NC(=O)C2CCCN(S(=O)(=O)c3c(C)nn(C)c3C)C2)c(C)c1 (configuration not stated) | -8.0%
COc1ccc(CCNC(=O)c2ccc(CN3CCOCC3)cc2)cc1 | -10.1%
Cc1nn(-c2ccc(F)cc2)c(-n2cccc2)c1C(=O)NCCCN1CCN(c2cccc(Cl)c2)CC1 | 11.3%
CC1(C)O[C@@H]2CC3C4C[C@H](F)C5=CC(=O)C=CC5(C)C4C(O)CC3(C)[C@]2(C(=O)CO)O1 (some centres not stated) | ?
Cc1[nH]c2ccccc2c1C(=O)CN1CCC(C)CC1 | -13.8%
CCN1C[C@@H]2[C@@H]3C(=O)N(Cc4ccccc4)C(=O)[C@@H]3[C@](C)(C1=O)N2C(=O)c1ccc(C)cc1 | -6.6%
CCOc1ccc(/C(C)=N/NC(=O)Cn2nc([N+](=O)[O-])cc2C)cc1 | 1.5%
CCOC(=O)C1(C(N)=O)OC1(c1ccc(Cl)cc1)c1ccccc1Cl (configuration not stated) | -1.2%
CCS(=O)(=O)N1CCc2cc(C(=O)Nc3cccc(Cl)c3C)ccc21 | 7.6%
CC(=O)Nc1ccc(S(=O)(=O)NNC(=O)c2cccc(Br)c2)cc1 | 10.8%
COC(=O)Cc1cc(=O)n2c(nc3ccccc32)[nH]1 | 8.7%
Cc1cc(NS(=O)(=O)c2cn(C)c(C)n2)ccc1Br | 15.6%
CNC(=O)CCc1ccc(OC)cc1 | 15.0%
O=C1c2ccccc2C(=O)N1CCCC(=O)N1CCc2ccccc21 | 8.9%
COc1cccc(CNC(=O)CCNC(=O)c2ccco2)c1 | -14.4%
Cc1ccc(-n2c(SCC(N)=O)nnc2-c2cnccn2)cc1 | 7.7%
COCc1nnc(NC(=O)c2ccc3c(c2)OCO3)s1 | 5.4%
CCN1C(=O)C(CC(=O)NC)N(NC(=O)c2ccccc2)C1=S (configuration not stated) | -2.4%
COc1cc(C(=O)Nc2ccccc2N2CCOCC2)ccc1OCC(=O)N1CCOCC1 | -3.5%
O=C(/C=C/c1cccc([N+](=O)[O-])c1)Nc1ccc(Cl)cn1 | -7.1%
CCOC(=O)N1CCN(Cc2ccc(F)cc2F)CC1 | -5.4%
O=C(C1CCCO1)N1CCN(C(=S)Nc2ccc(F)c(Cl)c2)CC1 (configuration not stated) | -12.9%
c1ccc2c(c1)NCC1CCCN21 (configuration not stated) | -3.0%
CCOC(=O)Cc1csc(Nc2c(C)n(C)n(-c3ccccc3)c2=O)n1 | 3.5%
CCN1/C(=C/c2ccc3cc(C)cc(C)c3[n+]2CC)Sc2cc(C)ccc21 | -0.4%
CCCC(=O)N1CCN(c2ccc(NC(=O)c3ccc(Br)o3)cc2)CC1 | -10.4%
CC(=O)Nc1ccc(Nc2nc(C(F)(F)F)nc3c2nnn3Cc2ccccc2Cl)cc1 | -16.1%
COc1ccc(Cn2c(-c3ccccc3)nc3c(c(=O)c4ccccc4n3C)c2=O)cc1 | -4.7%
CCN(CC)S(=O)(=O)c1ccc(NS(=O)(=O)c2ccc(C)c(C)c2)cc1 | -4.4%
CC(C)Cc1ccc(-c2cc(=O)[nH][nH]2)cc1 | -21.3%
Cc1cccc(NC(=O)Cn2nc(-c3cccs3)ccc2=O)c1C | -17.8%
Cc1ccc(N=C(NO)c2cnccc2C(F)(F)F)c(C)c1 | 22.9%
Cc1ccccc1OCC(=O)Nc1ccc(S(=O)(=O)N2CCCC2)cc1 | -2.2%
Cn1c(N)c(C(=O)CSc2ccc3c(c2)OCCO3)c(=O)n(C)c1=O | 6.2%
COc1ccccc1NC(=O)CN1CCN(CC(=O)Nc2ccc(OCc3ccccc3)cc2)CC1 | 7.8%

# (cont.)
SMILES | VDR inh
O/N=C(/CN(O)/C=C1/C=CC=N1)c1cccs1 | -10.0%
COc1ccc(/C=C/C(=O)NC(=S)Nc2cc3oc4ccccc4c3cc2OC)cc1 | 18.8%
CCOC(=O)C1CCN(C(=O)Cn2cc3c(n2)CCC(C)C3)CC1 (configuration not stated) | -25.6%
Cc1cc(-c2ccc(N3C(=O)CCC3=O)c(C)c2)ccc1N1C(=O)CCC1=O | -10.9%
Nc1ccc(-c2cnc[nH]2)cc1[N+](=O)[O-] | -8.6%
COc1ccc(N(CC(=O)NC2CCCCC2)C(=O)CNC(=O)c2ccco2)cc1 | 4.1%
Cc1cc(S(=O)(=O)NCCN2CCOCC2)c(C)s1 | 3.5%
CC(C)c1cccc(C(C)C)c1NC(=O)CN1C(=O)NC2(CCCC2)C1=O | -2.6%
CCNC(=O)NC(=O)C(C)Sc1nc2ccccc2c(=O)n1-c1cccnc1 (configuration not stated) | 9.3%
O=C(COC(=O)C1CC1)Nc1ccc(N=Nc2ccccc2)cc1 | -1.1%
CCSc1nnc(NC(=O)CCC2CCCCC2)s1 | 2.8%
N#CCCN1CCN(S(=O)(=O)c2ccc3c(c2)OCCCO3)CC1 | 6.2%
O=C(Cn1c2[n+](c3ccc(C(F)(F)F)cc31)CCCCC2)c1ccc2c(c1)OCCO2 | -4.7%
O=C(COC(=O)CNC(=O)c1ccc(Cl)cc1)NC1CCCCCC1 | 9.0%
Cc1oc(-c2ccccc2Cl)nc1CSCC(=O)O | -0.7%
COc1cc(-c2cc(-c3ccc(N)cc3)[nH]c(=O)c2C#N)cc(OC)c1OC | -14.7%
O=C(c1cc(-c2cccc(Cl)c2)on1)N1CCN(c2ccccc2)CC1 | 20.9%&7.2%
Cc1ccc2c(NC(=O)c3ccco3)cccc2n1 | -15.1%
C=CC(C)(O)CC1[C@@]2(C)CCCC(C)(C)C2CC[C@]1(C)O (some centres not stated) | -1.9%
CCC(CC)C(=O)Nc1cc(C)cc(C)c1 | -8.4%
COc1ccc(C2CC(=O)c3cc(-c4nc(-c5cccc([N+](=O)[O-])c5)cs4)c(=O)n(-c4cccc(C)c4)c3C2)cc1 (configuration not stated) | -15.9%
CCCn1nc(C(=O)Nc2cccc(C(=O)OC)c2)c2ccccc2c1=O | -2.3%
Cc1ccc(-c2nnn(CC(=O)N(CCO)C(C(=O)NC3CCCCC3)c3ccncc3)n2)o1 (configuration not stated) | -17.3%
CCOc1ccc(C(=O)Nc2nnc(SCc3cc(=O)n4ccccc4n3)s2)cc1 | 10.8%
CCOC(=O)C(C(=O)Nc1ccccn1)C1CCCCC1 (configuration not stated) | 2.7%
C[C@@H]1CN([C@H](C)CO)C(=O)c2cccc(NC(=O)c3ccncc3)c2O[C@@H]1CN(C)Cc1ccc(C(=O)O)cc1 | -5.0%
CCCCN1CCc2[nH]c(=S)[nH]c(=O)c2C1 | 0.4%
CC1=CC(C)C2C(=O)N(c3ccccc3)C(=O)C2C1 (configuration not stated) | -8.0%
COc1ccccc1C=NN1CCCCCC1 | -11.5%
Cc1ccccc1S(=O)(=O)N1CCN(C)CC1 | -29.1%
CCC(=O)N1CCc2cc(Br)cc(S(=O)(=O)N3CCCC(C(=O)NCc4ccccc4)C3)c21 (configuration not stated) | 1.6%
CCOC(=O)C1CCCN(S(=O)(=O)c2ccc3c(c2)CCCN3C(C)=O)C1 (configuration not stated) | -17.9%
CCOC(=O)c1nnn(-c2nonc2N)c1CN(C)C1CCCCC1 | 9.2%
O=C(CN1C(=O)c2ccccc2S1(=O)=O)Nc1ccc([N+](=O)[O-])cc1 | -8.8%
C#CC[N+](C)(C)CC#Cc1ccccc1 | -1.8%
Cc1ccccc1-n1c(=O)n(Cc2ccco2)c(=O)c2[nH]cnc21 | 9.1%
COc1cc(NC(=O)c2ccc([N+](=O)[O-])o2)ccc1NC(=O)c1ccco1 | 9.4%
CCc1sc(-c2c(C#N)c(N)nc3c2CCCCCC3)cc1[N+](=O)[O-] | -5.8%
O=C(O)CSc1nc(-c2ccccc2)c(-c2ccccc2)[nH]1 | -7.0%
Cc1cc(C)n2nc(C(=O)OCC(=O)N(CC(C)C)CC(C)C)nc2n1 | -1.0%
Cc1cc(C(F)F)n2nc(C(=O)Nc3cc(Cl)ccc3C)nc2n1 | -11.7%
C(=N\N1CCN(Cc2ccccc2)CC1)/c1cccs1 | -5.7%
Cc1ccc(-c2cc(-c3coc4ccccc4c3=O)c3c(n2)-c2ccccc2OC3)cc1 | -3.6%
COc1ccc(CCNC(=O)c2ccc(NS(=O)(=O)c3c(C)noc3C)cc2)cc1OC | -8.4%
O=C(NCC(=O)N(Cc1ccccc1)C(C(=O)NC1CCCC1)c1ccco1)c1ccco1 (configuration not stated) | 1.2%
COCc1cc(C)n(CC(=O)NC(C)c2ccccc2)c(=O)c1C#N (configuration not stated) | -12.4%
COc1ccc(Cn2nnnc2CN2CCC(O)(c3ccc(F)cc3)CC2)cc1 | -19.8%
O=C(CCN1CCCCO1)N1CCCC(N2CCN(c3ccc(F)cc3)CC2)C1 (configuration not stated) | -6.2%
CC(=O)c1ccc2c(c1)OCCOCCOc1ccccc1OCCOCCO2 | -23.3%
Cc1c(Cl)c(C(F)(F)F)nn1CC(=O)NN | -12.8%
CCC(C)c1ccc(-n2c(=O)c3ccccc3n3c(=S)[nH]nc23)cc1 (configuration not stated) | -15.9%
